Bioassay records: PubChem BioAssay, National Center for Advancing Translational Sciences (NCATS)
Vaccinia Venus – vaccinia inhibition (Venus reporter) | Vaccinia virus Venus reporter expression, fluorescence | 0.46% of 330,000 active | Potency, µM (highest dose often 36.5 µM), for inactives: at the highest dose activity change, negative = inhibition, hits mostly inhibitors; active means well fitted inhibition curve with a large enough effect; inconclusive means small, poorly fitted or top-dose-only effect; inactive means no such curve, though single readings can be large or run the other way; tested in A549 cells; also: nearly all actives have a fitted effect of over 30% in size; inactives centre near -10
VACV mCherry inh – vaccinia inhibition (mCherry reporter). 0.63% of 310,000 active. AID 720579. Vaccinia virus mCherry reporter infection, fluorescence; about a quarter of the inactives have no number. Potency, µM (highest dose often 36.5 µM), for inactives: at the top dose activity change, negative = inhibition, most hits filed as inhibitors; active = well fitted inhibition curve with a large enough effect; inconclusive = small, poorly fitted or top-dose-only effect; inactive = no such curve, though single readings can be large or run the other way; tested in A549 cells; also: nearly all actives have a fitted effect of over 35% in size; inactives centre near -10
Active calls of the source: *; i = inactive; u = inconclusive; x = not tested or not shown; [ ] = dose if it differs, or a comment. % is scaled to controls: 0 for no effect and ±100 for the full control effect; potency is read from the fitted curve at half-maximal effect.

Second line of a record – Vaccinia Venus, VACV mCherry inh
> Cn1c(SCc2c(Cl)cccc2Cl)nnc1-c1ccc2nonc2c1
    2.9%[7.34 µM], 4.7%[7.34 µM]
> O=S(=O)(Nc1ccc(Cl)nn1)c1ccccc1
    -2.7%, i
> CCN=C1S/C(=C\c2ccc(OCC)c(OC)c2)C(=O)N1CC
    -8.4%, -16.7%
> Cn1c(N)c(C(=O)COC(=O)CCCc2nc3ccccc3s2)c(=O)n(C)c1=O
    2.1%, -5.2%
> CSc1ccc(CCNC(=O)c2ccc(-c3nc(COc4ccccc4)c(C)o3)cc2)cc1
    -11.0%, 4.3%
> CCOC(=O)C(CC)Sc1nc2c(c(=O)[nH]c(=O)n2C)n1C/C=C(/C)Cl (stereo not drawn)
    -6.4%, -11.1%
> O=C(O)COc1ccccc1C=NNc1ccc([N+](=O)[O-])cc1S(=O)(=O)Nc1ccc(Cl)cc1
    0.0%, i
> Clc1ccc(SCCn2ccnc2)cc1
    -18.8%, x
> O=C(Nc1ccccc1Cl)c1ccc(S(=O)(=O)NCC2CCCO2)cc1 (stereo not drawn)
    -1.9%, 5.8%
> Cc1ccc(-n2cc(C(=O)OCc3ccc(F)c(F)c3)c3ccccc3c2=O)cc1
    u, i
> CN(C)c1cccc(C(=O)OCc2cc(=O)oc3cc(O)ccc23)c1
    5.6%, -2.9%
> CCN(C(=O)C1CCN(S(=O)(=O)c2ccc3c(c2)oc(=O)n3C)CC1)c1cccc(C)c1
    -12.5%, -3.3%
> Cc1ccc(S(=O)(=O)n2nc(C)c(S(=O)(=O)N3CCCCCC3)c2C)cc1
    -11.3%, -5.3%
> Cn1c(N/N=C/c2cccs2)nc2c1c(=O)n(Cc1ccccc1)c(=O)n2C
    -1.7%, -21.7%
> CC(C)N1C/C(=C/c2ccsc2)C(=O)/C(=C/c2ccsc2)C1
    -8.8%, -17.9%
> CCOC(=O)[C@@H]1C(c2c(OC)cc(OC)cc2OC)=NO[C@@H]1C(=O)OCC
    -10.7%, -11.5%
> COC(=O)COc1ccc(S(=O)(=O)Nc2cc([N+](=O)[O-])ccc2C)cc1
    -3.2%, i
> COc1cc(NC(=S)NNC(=O)C(C)(C)O)cc(OC)c1
    -15.3%, -10.3%
> Cc1ccc(C(=O)OCCN2CCN(c3ncc(C(F)(F)F)cc3Cl)CC2)cc1
    -7.6%, x
> Cc1cc(C)c(C#N)c(SCc2ccccc2C(=O)O)n1
    -2.6%, x
> O=C(NCCOCCOCCNC(=O)c1ccccc1)c1ccccc1
    0.7%, i
> CC1(C)CC(=O)C2=C(C1)OC1=C(C2)C(=O)CC(C)(C)C1
    -1.4%, -9.2%
> O=C(c1cc(Sc2ccc(Cl)cc2)nc2ccccc12)N1CCN(c2ccccn2)CC1
    2.4%, -6.0%
> CC1CN(CC(=O)Nc2ccc(Br)cn2)CC(C)O1 (stereo not drawn)
    -3.7%, -0.8%
> COc1ccc(-c2cc(=O)oc3cc(OC(C)C(=O)Nc4ccc(CN5CCOCC5)cc4)ccc23)cc1 (stereo not drawn)
    u, -9.7%
> COc1ccc(-c2nc(C)sc2CC(=O)O)cc1OC
    -7.4%, -11.6%
> CC(=O)Nc1ccc(-c2csc(-c3cccnc3)n2)cc1
    -11.4%, u
> O=C(NCc1cccnc1)c1cn(CCc2ccccc2)nn1
    -9.2%, i
> COc1cccc(NC(=O)COC(=O)CCS(=O)(=O)c2ccc(C)cc2)c1
    -0.9%, -8.5%
> O=C(CSc1cn(CCNC(=O)c2c(F)cccc2F)c2ccccc12)Nc1ccc(F)cc1
    -10.2%, -15.1%

(more compounds)
Second line of a record – Vaccinia Venus, VACV mCherry inh
> CC1(C)CC2CC(C)(CN2S(=O)(=O)c2cccc(C(=O)OCC(N)=O)c2)C1 (stereo not drawn)
    -19.5%, i
> Nc1nc(NC(=O)C(Cl)(Cl)Cl)nn1-c1ccccc1
    -16.3%, -4.6%
> CCn1c(=O)c2ccccc2n2c(SCC(=O)N3CCCc4ccccc43)nnc12
    -3.6%, i
> Cc1ccc(-c2csc(C(C#N)=C(O)CN3CCN(C(=O)c4ccco4)CC3)n2)cc1
    0.0%, -0.9%
> CC(C)N(Cc1ccccc1)C(=O)c1ccc2c(c1)OCO2
    -8.5%, i
> CCC(=O)N1CCC1(C)C(=O)Nc1ccc2scnc2c1 (stereo not drawn)
    7.0%, i
> CCCC(=O)NC(c1ccccc1OC)c1ccc2cccnc2c1O (stereo not drawn)
    u, 10µM*
> Cc1cc(=O)oc2c(CN(CC(C)C)CC(C)C)c(O)ccc12
    -22.9%, -15.0%
> COc1ccc(-c2cccc3c2OC(CNC(=O)c2ccc4c(c2)OCO4)C3)nn1 (stereo not drawn)
    3.9%, -4.8%
> O=C(NCc1cccs1)C1CCN(C(=O)N2CCOc3ccc(Cl)cc32)CC1
    -0.8%, -0.8%
> O=C(Nc1ccc(Oc2ccc(Cl)cc2)c(Cl)c1)c1cc(I)cc(I)c1O
    u, -18.5%
> CC(=O)NCC(=O)NCC1Cc2cc(C)cc(-c3ccccn3)c2O1 (stereo not drawn)
    4.3%, 4.7%
> Cc1cc(C)c2nc(N(Cc3cccnc3)C(=O)CCOc3ccccc3)sc2c1
    -20.5%, u
> NC(=O)COC(=O)C(Cc1ccccc1)NS(=O)(=O)c1ccccc1F (stereo not drawn)
    -3.4%, -11.6%
> O=C(c1cccc(C(F)(F)F)c1)C1CCCN(C(=O)CCc2cnccn2)C1 (stereo not drawn)
    -3.3%, i
> Cc1c(C(=O)Nc2ccc(Cl)cc2)c2ccccn2c1C(=O)c1ccccc1
    -8.1%, -2.7%
> Cc1ccccc1N(CC(=O)N1CCOCC1)S(C)(=O)=O
    -11.5%, i
> CCn1cc(/C=N\NC(=O)c2c[nH]c3ccccc23)c(C)n1
    -2.6%, -10.1%
> CSc1ccc(/C=N/Nc2ccc(Cl)c(C(=O)O)c2)cc1
    9.5%, 4.1%
> COc1ccc(OCC(=O)N2c3ccccc3CC2C)c([N+](=O)[O-])c1 (stereo not drawn)
    -4.9%, u
> CC(=O)OCC1OC(n2ncc(=O)n(Cc3ccccc3)c2=O)C(OC(C)=O)C1OC(C)=O (stereo not drawn)
    -1.0%, -3.5%
> CCOC(=O)c1cc(S(=O)(=O)N2CCN(c3ccc(C)cc3C)CC2)[nH]n1
    -12.0%, -8.6%
> CC(=O)c1c(C)[nH]c(C(=O)NCCc2c[nH]c3ccccc23)c1C
    -0.7%, -12.1%
> CN(C)c1ccc(NC(=O)CN2CCN(S(=O)(=O)c3cc(Cl)ccc3Cl)CC2)cc1
    -19.8%, x
> O=C(CCn1nc(-c2ccc(Cl)cc2)ccc1=O)NCc1ccccn1
    -4.3%, x
> CCCN(c1ccc(C(C)C)cc1)S(=O)(=O)c1ccc2c(c1)n(C)c(=O)c(=O)n2C
    1.0%, i
> CN(C(=O)c1cc([N+](=O)[O-])ccc1N1CCCC1)C1CCCCC1
    1.2%, i
> Cc1c(C(=O)NN2CCN(C)CC2)cccc1[N+](=O)[O-]
    -8.2%, -20.9%
> CN(Cc1ccccc1)C(=S)NC(=O)c1ccc(-c2ccccc2)cc1
    -17.4%, -26.3%
> CC(=O)c1cccc(NS(=O)(=O)N(C)C)c1
    -8.6%, x

Reformatted with each value named: two of the compounds above
Cc1c(C(=O)NN2CCN(C)CC2)cccc1[N+](=O)[O-]
  Vaccinia Venus: -8.2% | VACV mCherry inh: -20.9%

CN(Cc1ccccc1)C(=S)NC(=O)c1ccc(-c2ccccc2)cc1
  Vaccinia Venus: -17.4% | VACV mCherry inh: -26.3%

(cont.)
Second line of a record – Vaccinia Venus, VACV mCherry inh
> CCN(CC)C(=O)C1=C(C)N(Cc2ccc(F)cc2)C(=O)C(CC(=O)NCCc2ccccn2)C1 (stereo not drawn)
    2.5%, -13.6%
> CCOC(=O)c1cccc(NC(=O)c2cn(-c3cccc(OC)c3)c(=O)c3ccccc23)c1
    -19.6%, -26.4%
> O=C(Nc1cc(F)ccc1F)N1CCC(CN2CCOCC2)CC1
    -14.9%, -14.4%
> Cc1cccc(-n2ncc(C(=O)N3CCN(C(=O)c4ccco4)CC3)c2C2CCN(C(=O)OC(C)(C)C)CC2)c1
    -7.0%, -9.1%
> Cc1nnc(SCC(=O)N2c3ccccc3Sc3ccccc32)n1N
    -13.6%, -13.9%
> O=C(COC(=O)/C=C/c1ccccc1Cl)NC(=O)NCc1ccccc1
    5.0%, -15.5%
> CCOCCCNC(=O)Cc1ccc(Br)cc1
    -6.4%, -6.3%
> COC(=O)c1ccc(NC(=O)CC2C(=O)N(c3cccc(OC)c3)C(=O)N2C(C)C)cc1 (stereo not drawn)
    -2.3%, -0.6%
> O=C(NC1CCCCC1)Sc1ccc(Cl)cc1
    0.5%, -10.9%
> CS(=O)(=O)N(CC(=O)N1CCCC1)c1ccccc1F
    -2.9%, -2.8%
> COc1cc(OC)c(C(=O)Nc2cccc(C(C)=O)c2)cc1OC
    -12.2%, x
> CCCn1c(N)c(N(CCOC)C(=O)c2ccc(S(=O)(=O)N3CCOCC3)cc2)c(=O)[nH]c1=O
    -3.7%, -10.4%
> O=C1N=c2ccccc2=C1c1c(O)[nH]c2c(C(F)(F)F)cccc12
    -10.2%, -2.9%
> Cc1ccc(-c2c(CN3CCN(c4cc(Cl)ccc4C)CC3)csc2C)cc1
    -8.2%, -10.8%
> Cc1ccc(C2C=C(c3ccccc3OC(F)F)Nc3ncnn32)cc1 (stereo not drawn)
    -3.6%, i
> CC(C)(C)c1ccc(CSc2cnn(C(C)(C)C)c(=O)c2Cl)cc1
    u, -17.2%
> CC(C)(C)OC(=O)[C@H](CCCCN)NC(=O)c1nc[nH]c1C(=O)N[C@@H](CCCCN)C(=O)OC(C)(C)C
    -7.1%, -12.1%
> CCOC(=O)C1(CCOc2ccccc2)CCN(Cc2cccc(O)c2)CC1
    -17.3%, -9.6%
> CC(C)COP(=O)(OCC(C)C)C(O)c1cccnc1 (stereo not drawn)
    -9.3%, -16.6%
> Cc1cc(Nc2ccccc2)n(CCC#N)n1
    -14.2%, u
> Cc1ccc(NC(=O)CSc2nnc(COc3ccc(Cl)cc3)o2)cc1
    -7.5%, -5.3%
> Cc1c(C)n(Cc2ccccc2)c2ncnc(NCCCO)c12
    -14.3%, -9.0%
> O=S(=O)(c1ccccc1)c1nc(-c2cccs2)oc1NCC1CCCO1 (stereo not drawn)
    -5.6%, -11.6%
> CC(Sc1nnc2ccccn12)C(=O)Nc1ncc(Cl)cc1Cl (stereo not drawn)
    -14.8%, -22.5%
> CCN(CC)S(=O)(=O)c1ccc(S(=O)(=O)N2CCCC2)cc1
    -3.7%, 7.5%
> CN1C[C@H](CO)C=C2c3cccc4[nH]cc(c34)C[C@H]21
    -3.7%, 0.5%
> Cc1cccc(-c2nc3ccccc3c(=O)n2NC(=S)N(C)C)c1
    -14.8%, i
> CN(C(=O)n1cnc2ccccc21)c1ccccc1
    -2.3%, -13.5%
> CCN(CC)S(=O)(=O)c1ccc2nc(NC(=O)c3cncc(Br)c3)sc2c1
    u, -25.3%
> O=C(NCc1ccccc1CN1CCCC1)C1CCN(S(=O)(=O)c2ccc(F)c(F)c2)CC1
    -23.4%, -4.1%

Carrying on.
Second line of a record – Vaccinia Venus, VACV mCherry inh
> CCOC(=O)c1[nH]c(C)c(C(=O)N2CCN(c3ccc(F)cc3)CC2)c1C
    -24.4%, -10.3%
> O=C(O)CN1C(=O)NC2(CCc3ccccc32)C1=O (stereo not drawn)
    -6.2%, -3.0%
> O=C(COc1ccccc1)N1CCN(c2ccc([N+](=O)[O-])c(N3CCCCC3)c2)CC1
    -12.1%, -13.3%
> COc1cc(OC)c2cc[nH]c2c1
    -23.6%, -24.1%
> CCOc1ccc(N(CC(=O)NCCSCc2ccc(C)cc2)S(C)(=O)=O)cc1
    -6.4%, -17.5%
> COc1cccc(/C=N/NC(=O)C(C)n2nnc3ccccc32)c1 (stereo not drawn)
    -6.3%, -11.6%
> CCC/S(C)=N/S(=O)(=O)c1ccc(C)cc1 (stereo not drawn)
    -14.3%, i
> CCOC(=O)c1oc2ccccc2c1COC(=O)CNC(=O)c1ccccc1OC
    -11.8%, -14.2%
> S=C(NCc1cccnc1)Nc1ccc(Cl)c(Cl)c1
    u, -22.6%
> COc1ccc(CCNC(=O)c2cn3ccc(C)cc3n2)cc1OC
    -13.5%, -14.3%
> COc1ccc(NC(=O)CCSCCC(=O)Nc2ccc(OC)cc2OC)c(OC)c1
    -14.6%, -7.5%
> CCCCN(C)CCNC(=O)c1ccc2c(=O)n(CCc3ccccc3)c(=O)[nH]c2c1
    5.3%, -1.5%
> Nc1nc(-c2ccccc2Cl)cs1
    -19.7%, -12.1%
> CCC(C)(C)NC(=O)C(c1ccc(C)o1)N(Cc1cccs1)C(=O)Cn1nnc2ccccc21 (stereo not drawn)
    -26.4%, x
> CCCn1c(N)c(N(CCOC)C(=O)c2ccc([N+](=O)[O-])cc2Cl)c(=O)[nH]c1=O
    -8.0%, 0.5%
> C=CCNc1nc(N)c(C(=O)c2ccc3c(c2)OCO3)s1
    u, x
> COC(=O)c1ccc(Nc2nc3ccc(C)cc3n3cnnc23)cc1
    -16.4%, i
> CCOCc1nnc(NC(=O)C2CC(=O)N(CCc3ccc(F)cc3)C2)s1 (stereo not drawn)
    -8.8%, i
> COc1ccc(OC)c(S(=O)(=O)N2CCC(C(=O)N(C)Cc3ccccc3)CC2)c1
    -22.5%, -17.3%
> CCOc1cc(C2C(C(=O)OC)=C(C)NC3=C2C(=O)c2ccccc23)cc(Cl)c1O (stereo not drawn)
    -20.8%, -27.6%
> CCc1nc(C)cn1S(=O)(=O)c1cc(OC)c(C)cc1C
    -5.9%, -13.3%
